Screening results: PubChem, National Center for Advancing Translational Sciences (NCATS)
SARS PLpro yeast: inhibitors of SARS-CoV papain-like protease in yeast; Potency, µM (series often up to 32.9 µM), inactives show top-dose activity, positive = growth rescue; S. cerevisiae expressing SARS-CoV PLpro, growth rescue; control for the full effect not named in the record; 330,000 compounds, 0.19% hits; AID 485353; note: 0% is about no effect; nearly all actives have a fitted effect of over 55% in size; growth read by luminescence after 48 h
Marburg entry inh: blocks Marburg virus binding to or entry into cells. 300,000 compounds, 1.8% hits. AID 540276. Potency, µM (titrated, usually from 37.8 µM), for inactives: top-dose activity change, negative = inhibition, actives largely listed as inhibitors. Marburg virus pseudotyped entry inhibition, cell reporter; control for the full effect not named in the record; about a third of the inactives were read at about 46 µM; active = well fitted inhibition curve with a large enough effect; inconclusive = small, poorly fitted or top-dose-only effect, or effect the other way; inactive = flat fitted curve, though single readings scatter; tested in HEK293 cells; about a fifth of its hits are not listed in these tables; note: % is set by controls: 0 for no effect and ±100 for the full control effect; luciferase read-out
2A StopGo: FMDV 2A StopGo reporter, luciferase signal; human cells with a luciferase reporter of 2A StopGo recoding; control for the full effect not named in the record; Potency, µM (series often up to 57.9 µM), for the others: at the highest dose signal change, negative = less light; 410,000 compounds, 1.2% hits; AID 1159524; active = well fitted falling curve with a large enough effect; inconclusive = small, poorly fitted or top-dose-only effect; inactive = no such curve, though single readings can be large or run the other way; tested in HEK293T cells; note: % is set by controls: 0 for no effect and ±100 for the full control effect; nearly all actives have a fitted effect of over 45% in size; luciferase light after 4 h
Lassa entry inh: inhibitors of Lassa virus binding or cell entry. Potency, µM (series often up to 37.9 µM), for the others: at the top dose activity change, negative = inhibition, hits mostly inhibitors. Lassa virus pseudotype entry inhibition, cell reporter; control for the full effect not named in the record. 300,000 compounds, 1.2% hits; active means well fitted inhibition curve with a large enough effect; inconclusive means small, poorly fitted or top-dose-only effect, or effect the other way; inactive means flat fitted curve, though single readings scatter; tested in HEK293 cells; note: % is set by controls: 0 for no effect and ±100 for the full control effect; nearly all actives have a fitted effect of over 50% in size; luciferase read-out
Cruzain inh noDet: inhibitors of Trypanosoma cruzi cruzain without detergent | AID 1476 | purified cruzain, Z-FR-AMC fluorescence, no detergent | Potency, µM, inactives show max response, negative = inhibition, hits mostly inhibitors | P25779 | 200,000 compounds, 2.3% hits; active = well fitted curve in the direction sought with a large enough effect; inconclusive = small, poorly fitted or top-dose-only effect, or another doubt; inactive = no such curve, though single readings can be large; an effect the other way counts as inactive or inconclusive;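 note: plate controls were enzyme without inhibitor for no effect and buffer without enzyme for full effect; nearly all actives have a fitted effect of over 40% in size; top concentration of the series not given in the record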
Target sequence (P25779 123-467 limits assumed): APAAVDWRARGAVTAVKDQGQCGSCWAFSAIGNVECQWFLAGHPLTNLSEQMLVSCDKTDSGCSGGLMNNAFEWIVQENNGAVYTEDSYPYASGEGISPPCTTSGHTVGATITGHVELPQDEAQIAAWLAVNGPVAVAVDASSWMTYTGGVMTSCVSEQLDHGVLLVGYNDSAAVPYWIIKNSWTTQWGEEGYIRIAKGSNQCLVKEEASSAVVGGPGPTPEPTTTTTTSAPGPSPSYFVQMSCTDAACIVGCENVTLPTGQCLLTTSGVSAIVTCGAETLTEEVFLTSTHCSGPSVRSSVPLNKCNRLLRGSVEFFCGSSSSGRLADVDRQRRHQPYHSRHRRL
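Detergent-free condition (0.00005% Triton X-100) in acetate buffer pH 5.5 with DTT. 1.5 nM enzyme and compound were pre-mixed 15 min, then 2 uM Z-FR-AMC substrate added; reaction progress from fluorescence change between first and third reads (60 s).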
NS1 inh: blocks influenza NS1 protein function. Potency, µM (doses to about 46.1 µM), for inactives: at the highest dose activity, positive = more growth. S. cerevisiae slowed by influenza A NS1, growth recovery by OD600. 270,000 compounds, 0.4% hits. AID 2326; note: actives are rising curves; nearly all actives have a fitted effect of over 50% in size
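S. cerevisiae expressing influenza A NS1, grown in glucose, washed, then diluted 1:100 into pH 6.0 -URA galactose medium with 23 nl compound. Growth recovery read as OD600; NS1-free strain serves as control.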
Cruzain inh Det: blocks cruzain activity in presence of Triton detergent. P25779. purified cruzain, Z-FR-AMC fluorescence, 0.01% Triton. Potency, µM, for the others: max response, negative = inhibition, hits mostly inhibitors. 200,000 compounds, 0.43% hits; active = well fitted curve in the direction sought with a large enough effect; inconclusive = small, poorly fitted or top-dose-only effect, or another doubt; inactive = no such curve, though single readings can be large; an effect the other way counts as inactive or inconclusive;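 note: plate controls were neutral wells for no effect and buffer without enzyme for full effect; nearly all actives have a fitted effect of over 40% in size; top concentration of the series not given in the record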
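Z-FR-AMC hydrolysis (2 uM substrate) by cruzain (1.5 nM) monitored kinetically at ex 360/em 450 nm after 15 min room-temperature compound exposure; 0.01% Triton X-100, pH 5.5, 5 mM DTT.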
RE007 growth inh: less growth of the S. pombe RE007 Vpr strain | S. pombe RE007 Vpr strain, BacTiter-Glo ATP luminescence, 24 h; control for the full effect not named in the record | Potency, µM (doses to about 92.2 µM), for the others: at the highest dose activity change, negative = less growth | 360,000 compounds, 0.21% hits; active = well fitted falling curve with a large enough effect; inconclusive = small, poorly fitted or top-dose-only effect; inactive = no such curve, though single readings can be large or run the other way;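 note: % is set by controls: 0 for no effect and ±100 for the full control effect; nearly all actives have a fitted effect of over 50% in size; the assay follows cell death caused by Vpr and the record does not say whether a fall means rescue or toxicity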
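Fission yeast RE007 carrying one integrated HIV-1 vpr copy, seeded at OD 0.01 in PMG+AL medium with 23 nL pinned compound. Grown 24 h at 30 degrees; viability read by BacTiter-Glo luminescence after 5 min.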
Active calls of the source: *; ? = inconclusive; nt = not tested or not shown; & = joins results of further samples; [ ] = dose if it differs, or a comment. Unless noted, calls come from the whole dose curve; as a rule, active means well fitted rising curve with a large enough effect; inconclusive means small, poorly fitted or top-dose-only effect; inactive means no such curve, though single readings can be large or run the other way. Potency is the fitted concentration of half-maximal effect. Rows were taken by chance; about 4.7% have a hit in one of these screens.

SMILES	SARS PLpro yeast	Marburg entry inh	2A StopGo	Lassa entry inh	Cruzain inh noDet	NS1 inh	Cruzain inh Det	RE007 growth inh
COc1ccc(CN2C=C3C(=O)C(C)(OC(=O)CCc4ccccc4)C(=O)C=C3C=C2c2ccc(C#N)cc2)cc1 (stereo unspecified)	-0.7%	nt	-27.6%	nt	nt	3.2%	nt	?
CC(C)(CO)N=Cc1c(O)[nH]c2ccccc12	-1.4%	1.7%	-13.1%	-3.0%	-6.2%	-3.7%	-11.8%	-4.7%
CCOC(=O)c1[nH]nc(C(=O)c2ccc(Br)cc2)c1O	-0.9%	-0.2%	36.5%[activator]	10.3%	3.0%	-71.7%	1.5%	-15.7%
COc1nc(-c2ccc(C)cc2)ccc1-c1noc(-c2ccco2)n1	5.9%	20.3%	43.6%[activator]	6.3%	9.6%	-15.3%	-1.2%	-4.8%
O=Nc1c(O)n(Cc2ccccc2)c2ccccc12	-1.6%	nt	-15.0%	nt	nt	-5.0%	nt	-2.0%
CCOc1ccc(NC(=O)C2CC(=O)OC2c2ccccc2)cc1 (stereo unspecified)	0.6%	-1.6%[46.1 µM]	2.2%	-4.1%	nt	1.6%	nt	27.0%
O=C(NCc1cnn(-c2ccc(F)cc2)c1)C1CCC(=O)N(C2CC2)C1 (stereo unspecified)	-3.7%	3.9%	-18.5%	-1.1%	nt	0.2%	nt	-6.8%
Cc1ccc(NC(=S)NNC(=O)Cn2nc([N+](=O)[O-])cc2C)cc1	8.4%	-1.8%	10.6%	1.1%	11.6%	13.5%	3.4%	-7.3%
CCOc1cc(/C=C2\COc3ccccc3C2=O)ccc1OCC(=O)N(C)C	-9.8%	?	28.2µM*	?	nt	6.1%	nt	-4.9%
CC(NC(=O)CN(c1ccc(F)cc1)S(C)(=O)=O)c1ccccc1 (stereo unspecified)	2.1%	-25.2%	-2.5%	?	nt	17.5%	nt	5.8%
O=C(O)c1nn2c(c1Br)NC(c1ccccc1)CC2C(F)(F)F (stereo unspecified)	3.7%	10.3%	-5.5%	-0.2%	-1.0%	-8.4%	-0.6%	-2.1%
CCN(CC)c1ccc(C(=S)NCc2ccccc2)cc1	-2.3%	nt	21.9%	nt	nt	2.3%	nt	-4.8%
Cc1ccc(-n2c(=O)c3cccnc3n2CC(=O)Nc2ccccc2C(F)(F)F)cc1C	nt	nt	-16.8%	-14.6%[46.1 µM]	?	nt	-14.3%	nt
Clc1cc(NC2CCCCC2)ncn1	?	?	-9.4%	7.1%	nt	7.7%	nt	8.3%
CC1(C)CC(=O)c2c(O)c(-c3ccccc3)c(=O)n(-c3ccccc3)c2C1	15.0%	8.3%	-24.1%	2.9%	-0.8%	8.8%	-1.9%	2.2%
O=C(COC(=O)C1(c2ccc(Cl)cc2)CCCC1)NC1CCS(=O)(=O)C1 (stereo unspecified)	0.7%	1.0%	-24.4%	5.0%	10.7%	11.2%	2.1%	16.0%
Cc1nn(C(C)C(=O)NCc2cccs2)c(C)c1[N+](=O)[O-] (stereo unspecified)	0.1%	nt	-21.1%	nt	nt	-1.2%	nt	9.9%
Cc1ccc(S(=O)(=O)Nc2ccccc2F)cc1C(=O)OC(C)C(=O)N1CCOCC1 (stereo unspecified)	5.3%	-29.3%	84.2%[activator]	-12.8%	nt	nt	nt	5.2%
CC(C)N1CCN(S(=O)(=O)c2ccccc2)CC1	-4.0%	-0.3%[46.1 µM]	-7.1%	-1.1%[46.1 µM]	nt	8.9%	nt	-20.8%
O=S(=O)(Nc1ccc(Cl)cc1)c1cccc2nsnc12	-1.1%	?	31.4%[activator]	-10.7%[46.1 µM]	nt	-10.5%	nt	-25.8%
Cc1cccc(C)c1-n1ncc(C(=O)NCCCN2CCCCC2)c1C1CCN(C(=O)OC(C)(C)C)CC1	nt	nt	-15.2%	-13.0%[46.1 µM]	-10.3%	nt	-2.4%	nt
Cc1ccc(C2C(C(=O)c3sc(C)nc3C)=C(O)C(=O)N2CCN2CCOCC2)o1 (stereo unspecified)	-6.3%	17.8%	-17.9%	-9.0%	6.7%	-10.9%	-0.1%	-9.9%
COc1ccc(CCn2c(O)c(C=NCc3ccc4c(c3)OCO4)c(=O)[nH]c2=O)cc1OC	-2.2%	0.0%	?	-0.3%	?	?	-7.3%	17.3%[3.69 µM]
COC(=O)CC1(c2ccc(OC)cc2)C(=O)c2ccccc2C1=O	0.0%	?	0.3%	5.3%	nt	-3.4%	nt	30.0%
COCCn1c(=N)c(S(=O)(=O)c2ccc(F)cc2)cc2c(=O)n3cccc(C)c3nc21	2.2%	nt	-10.1%	nt	nt	7.0%	nt	-5.8%
COc1ccccc1NC(=O)N1CCCC1C(=O)NCCc1ccccc1 (stereo unspecified)	0.6%	nt	-0.8%	nt	nt	10.9%	nt	-2.3%
Cc1cc(NC(=O)COC(=O)C2CC(=O)N(c3cccc(C)c3C)C2)no1 (stereo unspecified)	2.2%	-9.0%[46.1 µM]	-6.5%	?	nt	?	nt	17.8%
Cc1ccnc(NC(=O)C(C)N2C(=O)c3ccccc3C2=O)c1 (stereo unspecified)	0.1%	-9.8%[46.1 µM]	0.7%	-9.6%	nt	2.8%	nt	-4.2%
CCN(CC)S(=O)(=O)c1ccc2c(c1)N(CC(=O)Nc1ccccc1F)C(=O)C1CCCN21 (stereo unspecified)	nt	12.0%[46.1 µM]	0.0%	2.8%[46.1 µM]	?	nt	-5.6%	nt
CCOc1ccc(NC(=O)C(CC(=O)O)Cc2ccc(C)cc2)cc1 (stereo unspecified)	0.9%	?	-3.8%	6.2%	nt	15.2%	nt	8.3%
O=C(NCC1CCCO1)c1ccc(NC(=O)c2cccc([N+](=O)[O-])c2)cc1 (stereo unspecified)	-6.2%	-0.9%[46.1 µM]	-13.6%	5.7%[46.1 µM]	nt	5.3%	nt	67.8%
CCOc1ccc(-c2nnc(NC3=NCCCCC3)o2)cc1	2.1%	?	-13.7%	?	0.5%	-5.1%	-1.0%	8.7%
CCn1c(=O)c(CCC(=O)NCC2CCCO2)c(C)c2c(C)nn(-c3ccc(C)cc3)c21 (stereo unspecified)	1.7%	nt	?	nt	nt	-7.6%	nt	-7.8%
CCN(CC)S(=O)(=O)c1ccc2c(c1)nc(SCC(=O)NC1CC1)n2-c1ccccc1OC	1.9%	-14.0%&-14.0%	-25.3%	-19.2%	?	-9.5%	-3.3%	21.8%
Cc1ncc([N+](=O)[O-])n1Cc1ccc(Br)cc1	-1.2%	nt	-14.4%	nt	nt	-2.0%	nt	-14.4%
CCn1c(COc2cccc(OC)c2)nnc1SCC(=O)Nc1cc(OC)ccc1OC	-2.6%	-8.4%&-8.4%	-29.2%	-0.8%	?	-46.8%	-5.5%	5.5%
O=C1C2C(c3ccccc3)C=CC(c3ccccc3)C2C(=O)N1c1cccnc1 (stereo unspecified)	8.5%	?	1.3%	-0.2%	-2.0%	-3.7%	-9.1%	-9.9%
Cc1cc(NC(=O)CCC(=O)N(CC(=O)NC2CCCC2)c2cccc(F)c2)no1	2.6%	-6.0%[46.1 µM]	31.1%	-8.5%	nt	?	nt	0.8%
COCCN(C(=O)CSCc1ccccc1)c1c(N)n(Cc2ccccc2)c(=O)[nH]c1=O	-1.7%	?	0.0%	?	nt	-3.3%	nt	8.8%
O=C(O)C1C2CCC(O2)C1C(=O)Nc1cccc(Br)c1 (stereo unspecified)	-6.2%	nt	2.2%	nt	nt	8.3%	nt	-3.8%
COc1ccc(-c2nn[nH]n2)cc1OC	1.4%	18.8%	-15.2%	2.8%	1.9%	0.4%	6.0%	-7.0%
Cc1cccc(-n2ccnc2SCC(=O)Nc2ccccc2C(F)(F)F)c1	nt	nt	-7.3%	?	-11.2%	nt	-4.5%	nt
C=CCn1c(=NC(=O)c2ccco2)sc2cc(C(=O)OCC)ccc21	7.0%	?	-5.6%	10.5%	12.4%	8.9%	6.1%	1.0%
Cc1cccc(C(C)(C)C)c1OCCn1ccnc1	-2.7%	?	-19.4%	7.5%	3.1%	-50.1%	-13.0%	-2.6%
Cc1ccc(-n2c(-c3ccncc3)n[nH]c2=S)cc1	0.4%	26.7%[46.1 µM]	1.5%	-4.1%[46.1 µM]	nt	nt	nt	29.0%
CN(C)CCn1c2c(c(SCC(=O)NCc3ccccc3)nc1=O)CCCC2	0.5%	8.8%	-8.9%	2.3%	nt	nt	nt	13.0%

Quoted at random: 3 entries already listed
SMILES	SARS PLpro yeast	Marburg entry inh	2A StopGo	Lassa entry inh	Cruzain inh noDet	NS1 inh	Cruzain inh Det	RE007 growth inh
Cc1ccc(C2C(C(=O)c3sc(C)nc3C)=C(O)C(=O)N2CCN2CCOCC2)o1 (stereo unspecified)	-6.3%	17.8%	-17.9%	-9.0%	6.7%	-10.9%	-0.1%	-9.9%
CCn1c(=O)c(CCC(=O)NCC2CCCO2)c(C)c2c(C)nn(-c3ccc(C)cc3)c21 (stereo unspecified)	1.7%	nt	?	nt	nt	-7.6%	nt	-7.8%
Clc1cc(NC2CCCCC2)ncn1	?	?	-9.4%	7.1%	nt	7.7%	nt	8.3%
